High-throughput results (PubChem BioAssay)
CtBP-E1A inh = blocks the CtBP interaction with E1A; AlphaScreen GST-E1A/His-CtBP binding, 1536-well; stronger effect = lower value; control for the full effect not named in the record; AID 651724; actives 0.49% (n = 340,000); activity change, % (test concentration not listed); in the data active means activity change below about -65%; inconclusive means about -30% to -65%; inactive means above about -30%; also: % is scaled to controls: 0 for no effect and ±100 for the full control effect; compound concentration not given in the record
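Protein mix (5X: 125 nM each GST-E1A, His-CtBP) was incubated with pinned compound 2 h at 37 deg C in dark, in 50 mM Tris pH 8.0 buffer with 300 mM NaCl. Glutathione donor and nickel acceptor beads followed; AlphaScreen signal read after 1 h.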
TRPML1 inh = blocks the human TRPML1 channel | AID 624415 | actives 0.02% (n = 390,000) | TRPML1-inducible cells, Ca2+ dye fluorescence, FDSS; stronger effect = lower value; inhibition of EC80 agonist-evoked calcium signal | Q9GZU1 | activity change, negative = inhibition, % (concentration not given with the values); in the data active means activity change below about -50%; inconclusive means about -30% to -50%; inactive means above about -30%;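 also: stimulus is agonist 54-4 at its EC80 concentration; % is scaled to controls: 0 for no effect and ±100 for the full control effect; compound concentration not given in the record; the text of the record puts the active cut at -80%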
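Tet-induced TRPML1-DL cells loaded with Ca8 no-wash calcium dye were read kinetically on FDSS. Compound addition was followed by EC80 agonist 54-4 (4 uM final); inhibition was read over 110 s.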
D2 agonist = human D2 receptor agonism in beta-arrestin assay; P14416; DiscoveRx PathHunter D2 beta-arrestin, luminescence, 90 min; 100% = 57 uM dopamine signal; activation, % (concentration not given with the values); actives 0.084% (n = 360,000); in the data active = activation above about 40%; inconclusive = about 15% to 40%; inactive = below about 15%; also: compound concentration not given in the record; the text of the record calls up to 30% inactive
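Agonist mode: compounds alone added to overnight-plated D2 PathHunter cells for 90 min at 37 C, with 57 uM final dopamine (EC100) defining full response. Beta-arrestin recruitment detected by chemiluminescent reagent, read after 1 h at ambient temperature.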
TRPML1 ag = agonists of human TRPML1 channel; actives 0.12% (n = 410,000); TRPML1-expressing cells, Ca2+ dye fluorescence, FDSS; host cell line not named in the record; reference of the full effect not given here; AID 624414; Q9GZU1; activation, % (no concentration beside the values); in the data active = activation above about 50%; inconclusive = about 30% to 50%; inactive = below about 30%; also: 0% is about no effect; the text of the record puts the active cut at 80%
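In this qHTS format, compounds were pin-transferred onto Ca8-dye-loaded TRPML1-DL cells induced with Tet overnight, and intracellular Ca2+ fluorescence was recorded kinetically for 110 s after a 10 s baseline. A subsequent 4uM final 54-4 (EC80) addition followed by a second 110 s read served as the antagonist phase.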
Six1-Eya2 inh = Six1/Eya2 interaction inhibition; Q15475+O00167; AlphaScreen GST-Six1/His-Eya2 binding, biochemical; stronger effect = lower value; control for the full effect not named in the record; activity change, % (no concentration beside the values); actives 0.56% (n = 360,000); AID 651725; in the data active = activity change below about -65%; inconclusive = about -30% to -65%; inactive = above about -30%; also: % is scaled to controls: 0 for no effect and ±100 for the full control effect; compound concentration not given in the record
Target sequence (O00167 whole entry, looked up): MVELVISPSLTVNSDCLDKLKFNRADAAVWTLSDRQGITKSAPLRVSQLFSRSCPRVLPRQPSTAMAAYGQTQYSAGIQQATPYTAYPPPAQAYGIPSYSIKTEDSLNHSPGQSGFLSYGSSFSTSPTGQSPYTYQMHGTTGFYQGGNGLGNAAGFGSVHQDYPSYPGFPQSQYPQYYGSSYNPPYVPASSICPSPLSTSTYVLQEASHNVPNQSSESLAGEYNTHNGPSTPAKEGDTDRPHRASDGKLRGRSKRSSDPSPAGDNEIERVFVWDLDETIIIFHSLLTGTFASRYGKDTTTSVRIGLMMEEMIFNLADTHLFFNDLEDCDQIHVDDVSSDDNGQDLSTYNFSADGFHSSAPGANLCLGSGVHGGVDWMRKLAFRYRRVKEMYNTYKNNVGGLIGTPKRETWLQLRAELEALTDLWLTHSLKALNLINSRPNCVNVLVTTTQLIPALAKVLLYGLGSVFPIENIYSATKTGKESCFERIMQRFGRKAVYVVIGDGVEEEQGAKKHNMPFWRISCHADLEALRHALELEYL
Target sequence (Q15475 whole entry, looked up): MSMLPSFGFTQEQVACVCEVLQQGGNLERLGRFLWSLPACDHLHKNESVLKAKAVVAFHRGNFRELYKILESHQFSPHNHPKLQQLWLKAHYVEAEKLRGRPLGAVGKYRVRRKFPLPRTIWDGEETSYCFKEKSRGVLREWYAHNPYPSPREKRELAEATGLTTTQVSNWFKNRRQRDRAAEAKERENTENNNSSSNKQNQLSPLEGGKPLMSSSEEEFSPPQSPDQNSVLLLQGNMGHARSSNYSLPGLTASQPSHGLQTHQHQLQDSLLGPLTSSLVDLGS
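GST-Six1 + His-Eya2 (5X stock: 250/500 nM); Tris pH 8.0, 300 mM NaCl, 0.05% BSA, 0.02% Tween 20; GSH donor/Ni acceptor beads; 1 h 37 °C dark; AlphaScreen readout.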
PINK1 modulator = modulators of PINK1 expression. PINK1 immunofluorescence, high-content cytometry, 24 h. Potency, µM (top dose mostly 76.6 µM), for inactives: top-dose activation (PINK1 increase), most hits filed as activators. actives 0.2% (n = 410,000). AID 624263; active = well fitted activation curve with a large enough effect; inconclusive = small, poorly fitted or top-dose-only effect; inactive = flat fitted curve, though single readings scatter; cell line not stated here;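 also: potency is read from the fitted curve at half-maximal effect; % of control where 0% means no effect; nearly all actives have a fitted effect of over 65% in size; a mitochondrial uncoupler was the plate control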
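Stable cell line, 250 cells/well, 12 h attachment; compounds pinned at 5 concentrations, 24 h; CCCP control. Fixed with nuclear dye, primary antibodies 12 h at 10 degrees C, secondary plus cell stain; laser-scanning cytometer read.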
Active calls of the source: *; ? = inconclusive; nt = no result given; [ ] = remark or other dose.

SMILES	CtBP-E1A inh	TRPML1 inh	D2 agonist	TRPML1 ag	Six1-Eya2 inh	PINK1 modulator
O=C(Nc1cccc(F)c1)NC1CCN(Cc2ccccc2)CC1	nt	-2	-2.6	1.0	-1	1.9%
CC1CCN(S(=O)(=O)c2ccc3c(c2)N(CC(=O)NCc2ccccc2Cl)C(=O)CS3)CC1	nt	-3	nt	-0.1	nt	1.8%
NS(=O)(=O)c1ccc(CNC(=O)CNC(=O)Cc2ccccc2)cc1	3	15	-0.9	-0.2	1	2.9%
CCN(CC)CCNC(=O)C(=O)Nc1ccc2c(c1)N(S(=O)(=O)c1cccs1)CCC2	-2	-11	-0.9	0.6	-11	4.1%
COc1ccc(NC(=O)c2ncn[nH]2)cc1	6	4	-2.8	-0.1	0	4.2%
COc1ccccc1/C=C/CN1CCN(Cc2ccc(F)cc2)C(CCO)C1 (stereo unspecified)	9	7	-2.1	0.5	-6	-1.1%
O=[N+]([O-])c1ccc(CN2CC(N3CCN(CC4CC4)CC3)CS2(=O)=O)cc1 (stereo unspecified)	7	-10	-6.3	0.1	0	1.9%
COC(=O)c1[nH]c2ccc(Cl)cc2c1NC(=O)CCN1CCN(C2CCCCC2)CC1	4	6	-2.1	-0.7	-3	-4.1%
CCOc1ccc(-c2nnc(SCC(=O)N(CC)CC)n2N)cc1	8	1	-1.1	-1.2	1	0.6%
COc1ccc(CN(C(=O)CCC(=O)N2CCCCC2)c2nccs2)cc1OC	4	16	-0.8	-0.3	2	1.6%
COc1cc(C(=O)OCc2cccc(S(=O)(=O)N3CCOCC3)c2)ccc1OCC(C)C	-9	28	6.3	3.1	4	-0.2%
CC1CCCCC1NC(=O)c1cn(C)c2ccc(S(=O)(=O)N3CCCC3)cc2c1=O (stereo unspecified)	4	8	-1.4	-0.6	1	-1.0%
O=C1CN(C(=O)COC(=O)CCC(=O)c2ccc(Cl)cc2)c2ccccc2N1	10	32	-1.2	-0.4	3	-0.2%
O=[N+]([O-])c1ccc(/C=N/Nc2nc(N3CCCCCC3)nc(N3CCCCCC3)n2)o1	-5	3	-1.1	-0.3	-23	10%
Cn1c(CC(=O)Nc2ccccc2F)nnc1SCC(=O)NC1=NCCS1	5	7	1.9	0.4	1	0.7%
CCOCCCNC(=O)C1(O)c2ccccc2NC(=O)N1c1ccc(C)c(C)c1 (stereo unspecified)	nt	10	5.7	1.1	3	0.1%
CSc1ncccc1C(=O)Nc1cc(Cl)ccc1N1CCOCC1	3	-7	-0.2	0.1	0	-0.5%
O=[N+]([O-])c1cc(Cl)ccc1N1CCOCC1	nt	14	-5.1	0.4	-1	-0.4%
COc1ccc(S(=O)(=O)NC2CCCC2)cc1NC(C)=O	-3	3	1.1	1.5	-3	0.1%
CCC1Sc2ccccc2N(CC(=O)NC2CC2)C1=O (stereo unspecified)	8	0	-2.8	-0.1	3	2.1%

Continued; the last two above are carried over.
SMILES	CtBP-E1A inh	TRPML1 inh	D2 agonist	TRPML1 ag	Six1-Eya2 inh	PINK1 modulator
COc1ccc(S(=O)(=O)NC2CCCC2)cc1NC(C)=O	-3	3	1.1	1.5	-3	0.1%
CCC1Sc2ccccc2N(CC(=O)NC2CC2)C1=O (stereo unspecified)	8	0	-2.8	-0.1	3	2.1%
COc1ccccc1CNC(=O)CSc1ncc(C(=O)Nc2ccccc2)c(=O)n1C	12	-13	7.3	0.8	-6	1.6%
COc1ccc(OC)c(NC(=O)c2cc3ccccc3o2)c1	4	8	-3.1	1.3	4	0.9%
O=C(CCS(=O)(=O)c1ccc(Br)cc1)N1CCN(c2ccccc2Cl)CC1	2	13	-2.7	4.6	-1	4.5%[38.3 µM]
Cc1[nH]n(-c2ccccc2)c(=O)c1N=Nc1ccc(Cl)cc1	-25	4	-3.9	0.9	-24	6.3%
CC(=O)c1cn(-c2ccc([N+](=O)[O-])cc2)c(=O)n(C)c1=O	6	11	-1.5	0.0	-11	0.4%
CN(Cc1ccccc1)C(=O)c1cccc(N2C(=O)NC3CC2(C)Oc2ccccc23)c1 (stereo unspecified)	7	12	-2.3	-0.1	5	-1.6%
Cn1c(NC(=O)c2ccco2)cc(=O)n(C)c1=O	7	-3	-1.1	0.6	1	0.0%[38.3 µM]
O=C(Cn1cnc(S(=O)(=O)N2CCCCC2)c1)N1CCN(c2ccc([N+](=O)[O-])cc2)CC1	2	4	-1.8	-0.3	0	-1.0%
CC(C)CCN=Cc1c(O)n(-c2ccccc2)c(=O)c2ccccc12	-13	15	1.3	1.5	-7	?
CC1CCN(C(=S)c2ccc(-c3ccc(Cl)cc3Cl)o2)CC1	0	3	0.3	-0.4	0	14%
Cc1noc(C)c1C(=O)N1CCC(Cc2ccccc2)CC1	-1	-14	1.3	0.1	-1	-2.9%[38.3 µM]
CC(=O)Nc1ccc(S(=O)(=O)Nc2nc3ccccc3nc2N2CCCC2)cc1	0	5	-0.7	0.0	18	-0.6%
CCCCC(CC)COC(=O)c1ccc(N(C)C)cc1 (stereo unspecified)	9	0	4.8	-0.6	1	6.3%
CCOc1ccc(C(C(=O)NC2CCCCC2)N(C(=O)c2ccco2)c2ccc(-n3cnnn3)c(C)c2)cc1 (stereo unspecified)	0	-5	-1.7	-0.5	-2	-0.2%
O=C(COC(=O)CCc1nc2ccccc2s1)Nc1ccc(S(=O)(=O)N2CCOCC2)cc1	-3	-1	-3.9	-0.9	0	-3.0%
CCOC(=O)[C@]12CCCC=C1N(Cc1ccc(Cl)cc1Cl)C(=O)[C@H](CC(=O)N1CCOCC1)C2	-4	nt	nt	-0.2	-23	0.8%
COc1ccc(-c2nc(CCl)cs2)cc1	7	-8	-1.2	-0.2	5	-0.8%
CCOc1ccc(C2C(C#N)=C(N)SC(N)=C2C#N)c(OCC)c1	-7	0	2.1	0.3	0	-0.8%
C=CCOc1ccccc1CN(CCc1ccccc1)C(=O)c1cccc(S(C)(=O)=O)c1	-4	-10	-3.8	3.3	9	-2.2%
CN(NC(=O)c1ccc(Cl)cc1)c1cccc(Cl)n1	0	9	-1.9	-0.4	0	28%[38.3 µM]
CCCNC(=O)C1(C)CCCN(Cc2ccc(C(=O)OCC)o2)C1 (stereo unspecified)	5	nt	1.9	-0.4	-3	0.1%
COc1cc(C(=S)N2CCCCC2)ccc1OCC(=O)Nc1ccccc1Cl	-6	5	3.2	1.0	-27	-3.7%
Cc1cc(C)nc(SCc2nnc(SCC(=O)Nc3ccc(C)c(C)c3)n2Cc2ccco2)n1	-2	-13	-2.7	2.6	-4	-1.9%
CCCCN(C(=O)COc1ccc(F)cc1)c1c(N)n(CC(C)C)c(=O)[nH]c1=O	3	-11	-0.9	0.0	0	-0.6%
CC(N=C1NS(=O)(=O)c2ccccc21)C(=O)Nc1ccc(F)cc1Cl (stereo unspecified)	nt	11	1.3	-1.1	4	1.0%
CC1=CC2=NC(=O)/C(=C\c3cc(C)n(-c4ccccc4)c3C)C(=N)N2O1	0	4	-2.5	0.9	1	6.6%
Cc1ccc(NC(=O)COC(=O)Cn2c(C)csc2=O)cc1S(=O)(=O)N1CCOCC1	-13	29	0.2	-0.1	-1	0.0%
Cc1ccc(NC(=O)C2(C)CCN2C(=O)Cc2ccccc2)cc1C (stereo unspecified)	0	7	-2.6	-0.7	0	0.2%
O=C(N/N=C/c1cc(Br)cc(Br)c1O)c1ccncc1	-93*	-2	-0.9	11	-80*	3.5%
COc1cccc(-c2nn3c(-c4ccco4)nnc3s2)c1	?	17	-1.6	2.3	-24	nt
Cc1cc([N+](=O)[O-])c2ccccc2c1NS(=O)(=O)c1ccccc1	-3	-7	-0.6	-0.2	-3	28%
Cc1nc2cc(Cc3ccccc3)ccc2o1	-1	-12	-2.1	1.6	6	-0.7%
CC(=O)N1CCc2cc(Br)cc(S(=O)(=O)N3CCCCC3)c21	4	11	4.8	-0.4	-2	2.4%
Cc1cc(S(=O)(=O)Nc2c(C)ccc3nsnc23)ccc1F	-1	-9	-3.4	0.8	0	3.4%[38.3 µM]
COCCCNC(=S)NNC(=S)NCCCOC	-20	18	-0.3	-0.1	-13	-1.1%
Cc1cccc(NC(=O)N2CCCC2C(=O)Nc2ccccc2)c1 (stereo unspecified)	0	23	-3.3	-1.1	2	2.0%
CC(=O)N1CCC(C(=O)N2CCN(S(=O)(=O)c3cccs3)CC2)CC1	0	7	-1.4	-0.2	32	2.4%
CCOc1ccc2[nH]c(=O)c(CN(CCN3CCCC3)C(=S)Nc3ccccc3OCC)cc2c1	-1	6	-4.7	-0.4	-9	2.2%
CCc1c(O)nc(SCC(=O)c2ccccc2)n(-c2ccccc2)c1=O	-17	-22	-3.9	1.8	-6	-0.3%
Cc1ccc2c(c1)N(Cc1cccc(F)c1)C(=O)C(C)O2 (stereo unspecified)	nt	5	-1.1	4.1	-2	4.2%
Cn1c(CSCc2ccccc2)nnc1SCC(=O)Nc1nccs1	-6	-13	0.2	-0.2	10	nt
CCOC(=O)COc1cccc(C2NC(=O)c3ccccc3O2)c1 (stereo unspecified)	5	44	-1.9	0.6	-6	-0.5%
C[C@@H]1CCCCO[C@H](CN(C)C(=O)Cc2ccccc2)[C@H](C)CN([C@@H](C)CO)C(=O)c2cc(NC(=O)Nc3ccc(F)cc3)ccc2O1	-7	-17	-6.9	-0.2	-14	2.5%
Cc1cccc(OCCn2c(-c3ccco3)nc3ccccc32)c1	-11	61	-3.2	6.1	-12	0.1%
Cc1ccc2c(c1)c1c3n2CCN(C(=O)c2ccc(C(F)(F)F)cc2)C3CCC1 (stereo unspecified)	nt	-28	nt	56*	nt	0.3%
Cc1ccc(Nc2nc(Cl)c(C=O)s2)cc1	9	5	-2.2	0.0	4	0.8%
Cn1c(N)c(C(C[N+](=O)[O-])c2ccccc2Cl)c(=O)n(C)c1=O (stereo unspecified)	11	1	3.3	0.2	-6	2.2%
CCSc1nnc(NC(=O)C2C3CCC(C3)C2C(=O)O)s1 (stereo unspecified)	0	-6	-0.3	0.1	15	2.5%
N#Cc1cc(C#N)c(N2CCN(c3ccccn3)CC2)nc1N	7	-2	-2.3	0.6	-2	-1.1%[38.3 µM]

Some of these compounds in order of the CtBP-E1A inh value, lowest first.
Structure | CtBP-E1A inh
Cc1cccc(OCCn2c(-c3ccco3)nc3ccccc32)c1 | -11
CCSc1nnc(NC(=O)C2C3CCC(C3)C2C(=O)O)s1 (stereo unspecified) | 0
CCOC(=O)COc1cccc(C2NC(=O)c3ccccc3O2)c1 (stereo unspecified) | 5
N#Cc1cc(C#N)c(N2CCN(c3ccccn3)CC2)nc1N | 7
Cc1ccc(Nc2nc(Cl)c(C=O)s2)cc1 | 9
Cn1c(N)c(C(C[N+](=O)[O-])c2ccccc2Cl)c(=O)n(C)c1=O (stereo unspecified) | 11
